gsp antagonist – antagonists of gsp mutant (McCune-Albright syndrome); 340,000 tested, 0.4% active; gsp-mutant cells, cAMP HTRF, 30 min; control for the full effect not named in the record; Potency, µM (series often up to 76.9 µM), for inactives: top-dose activity change, negative = inhibition, actives largely listed as inhibitors; active = falling curve of any shape with a large fitted effect; inconclusive = falling curve, mostly with a smaller effect; inactive = flat or rising curve; cell line not stated here;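 further: intracellular cAMP measured with PDE inhibitor Ro 20-1724 present during compound exposure; potency means the concentration at half of the fitted maximal effect; on the % scale 0 is the no-effect control and ±100 the full control effect; nearly all actives have a fitted effect of over 65% in size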
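HTRF cAMP read-out (cAMP-d2 plus anti-cAMP antibody-K in lysis buffer, 30 min RT). Before lysis, cells are exposed to compounds with […] for 30 min at 37C in DPBS containing Ca/Mg, BSA and Tween 20.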
CtBP-E1A inh – inhibitors of CtBP/E1A interaction; AlphaScreen GST-E1A/His-CtBP binding, 1536-well; active compounds read low; control for the full effect not named in the record; activity change, % (no concentration beside the values); 340,000 tested, 0.49% active; AID 651724; in the data active means activity change below about -65%; inconclusive means about -30% to -65%; inactive means above about -30%; further: on the % scale 0 is the no-effect control and ±100 the full control effect
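GST-E1A and His-tagged CtBP (125 nM each as 5X stock) were preincubated with pin-transferred compound for 2 h at 37 °C in the dark, then glutathione donor and nickel acceptor beads were added for 1 h before AlphaScreen reading.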
D2 agonist – agonists of human D2 dopamine receptor (beta-arrestin); DiscoveRx PathHunter D2 beta-arrestin, luminescence, 90 min; 100% = 57 uM dopamine signal; activation, % (test concentration not listed); 360,000 tested, 0.084% active; AID 624465; in the data active = activation above about 40%; inconclusive = about 15% to 40%; inactive = below about 15%; further: compound concentration not given in the record; the text of the record calls up to 30% inactive
Target sequence (P14416 whole entry, looked up): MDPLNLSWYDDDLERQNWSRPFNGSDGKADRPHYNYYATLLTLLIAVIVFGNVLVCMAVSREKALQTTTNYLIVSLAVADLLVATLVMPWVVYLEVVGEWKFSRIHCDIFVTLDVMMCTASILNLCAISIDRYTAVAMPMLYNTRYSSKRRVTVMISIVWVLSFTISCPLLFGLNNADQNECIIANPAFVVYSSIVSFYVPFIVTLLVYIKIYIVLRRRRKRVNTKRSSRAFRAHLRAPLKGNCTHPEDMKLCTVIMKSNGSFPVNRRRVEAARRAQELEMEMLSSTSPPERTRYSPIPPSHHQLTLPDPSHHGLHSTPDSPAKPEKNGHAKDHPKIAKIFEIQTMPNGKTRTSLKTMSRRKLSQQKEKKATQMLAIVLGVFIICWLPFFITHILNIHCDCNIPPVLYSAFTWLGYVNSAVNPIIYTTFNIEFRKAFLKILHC
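DiscoveRx PathHunter D2 beta-arrestin cells (2,100/well) attached overnight, then compound-stimulated 90 min at 37 C in HBSS/10 mM HEPES/0.1% Tween-20 buffer; beta-galactosidase complementation read by luminescence after 1 h at ambient temperature. Dopamine 57 uM final (EC100) as control.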
gsp ag – activates gsp, the McCune-Albright syndrome mutation; 340,000 tested, 0.13% active; gsp mutant cells, cAMP HTRF, 30 min; control for the full effect not named in the record; Potency, µM (doses to about 76.9 µM), for the others: at the top dose activation (cAMP increase), hits mostly activators; active = well fitted activation curve with a large enough effect; inconclusive = small, poorly fitted or top-dose-only effect, or another doubt; inactive = no such curve, though single readings can be large or run the other way; cell line not stated here;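 further: phosphodiesterase inhibitor Ro 20-1724 added with compounds to block cAMP breakdown; potency means the concentration at half of the fitted maximal effect; nearly all actives have a fitted effect of over 60% in size; about a fifth of the inactives were tested at one dose only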
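Cells in DMEM/10% FBS with G418 were pretreated with compounds in DMSO plus […] (300 uM stock) for 30 min at 37C. cAMP was measured by HTRF (cAMP-d2 plus anti-cAMP antibody-K) after 30 min at room temperature.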
Six1-Eya2 inh – blocks human Six1 binding to Eya2; 360,000 tested, 0.56% active; AID 651725; Q15475+O00167; AlphaScreen GST-Six1/His-Eya2 binding, biochemical; active compounds read low; control for the full effect not named in the record; activity change, % (test concentration not listed); in the data active = activity change below about -65%; inconclusive = about -30% to -65%; inactive = above about -30%; further: on the % scale 0 is the no-effect control and ±100 the full control effect
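GST-Six1 + His-Eya2 (5X stock: 250/500 nM); Tris pH 8.0, 300 mM NaCl, 0.05% BSA, 0.02% Tween 20; GSH donor/Ni acceptor beads; 1 h 37 °C dark; AlphaScreen readout.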
D2 PAM – human D2 receptor positive allosteric modulation | DiscoveRx D2 beta-arrestin cells, luminescence, 90 min; 100% = 57 uM dopamine signal | P14416 | 360,000 tested, 0.23% active | potentiation, % (no concentration beside the values); active = potentiation of 50% or more; inconclusive = 30% to 50%; inactive = 30% or less;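 further: compound concentration not given in the record; tested on top of an EC20 dose of dopamine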
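PathHunter beta-arrestin assay in DiscoveRx D2 cells. Compounds were added with an EC20 of dopamine (50 nM final) for 90 min at 37 deg C. Luminescence was read 1 h after detection reagent, with 57 uM dopamine as the EC100 control.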
Active calls of the source: *; ? = inconclusive; / = not tested or not shown; [ ] = another dose, or the depositor's remark. This is a random part of the collection (roughly 1.4% active in at least one column).

SMILES	gsp antagonist	CtBP-E1A inh	D2 agonist	gsp ag	Six1-Eya2 inh	D2 PAM
O=C1CNC(=O)c2c(nc3n2CCC3)N1	6%	4	0.0	-38%[inhibitor]	4	-3
Cc1nc2sc(C(c3ccc(Cl)cc3)N3CC(C)OC(C)C3)c(O)n2n1 (stereo not drawn)	-2%	-1	-2.0	-25%	1	-1
CN(c1ccc(C(=O)O)cc1)S(=O)(=O)c1ccccc1	-7%	11	-0.7	-19%	2	-13
CC1CN(c2nc3ccccc3nc2C(C#N)C(=O)NCc2ccc3c(c2)OCO3)CC(C)O1 (stereo not drawn)	-5%	-4	-0.9	6%	10	11
C#CCOC(=O)c1cc(Cl)c(=O)n(Cc2ccc(Cl)cc2Cl)c1	-13%	/	4.9	-12%	-2	-2
O=C(CN1C(=O)NC2(CCc3ccccc32)C1=O)NCc1ccccc1Cl (stereo not drawn)	16%	-19	-4.1	10%	0	-5
O=c1[nH][nH]c(=O)n1-c1ccccc1	5%	12	-0.5	23%	7	-6
O=C(O)CNC(=O)C(c1ccccc1)c1ccccc1	10%	0	-0.2	-23%[15.4 µM]	6	-3
Nc1ccn([C@@H]2O[C@H](C(=O)Nc3ccc(C(=O)N4CCCCC4)cc3)[C@@H](O)[C@H]2O)c(=O)n1	/	6	-3.0	/	4	0
CCOC(=O)C1(Cc2cccc(OC)c2)CCN(C(C)CC(C)(C)O)CC1 (stereo not drawn)	14%	0	-3.2	33%	1	-9
O=C1N/C(=C/c2ccc(Br)s2)C(=O)N1c1ccccc1	-2%	1	-2.2	-27%	2	-3
CCOC(=O)C1CCN(C(=O)Cn2nc(C)n3c(cc4cc(F)ccc43)c2=O)CC1	3%	5	-2.6	?	19	4
Cc1ccc(S(=O)(=O)N2CCCCC2)cc1C(=O)N1CCN(CCO)CC1	6%	3	-2.1	12%	4	2
C=CCC[C@@H](Cc1ccc(F)cc1)C(=O)OC[C@H](Cc1c[nH]c2ccccc12)NC(=O)[C@@H](CC=C)CC(=O)NCCO	-12%	-1	5.7	/	-8	0
Nc1ccc(Oc2ccc3nc(-c4ccccc4)c(-c4ccccc4)nc3c2)cc1	-11%	5	-0.8	8%	6	-31
COc1ccccc1C(CC(=O)Nc1ccc(Cl)cc1)c1ccc(OC(C)C)cc1 (stereo not drawn)	1%	5	-4.0	22%	5	-13
COc1ccccc1/C=C/C=N/NC(=O)c1ccc(=O)n(C)c1	0%	-2	0.9	5%	-8	-2
Cc1nn(-c2ccccc2)c(C)c1/C=N/NC(=O)c1cnccn1	-7%	/	-2.9	19%	2	-18
CC(C)(C)C(=O)Nc1ccc(-c2nnc3n2CCCCC3)cc1	-4%	5	1.4	0%	2	-3
Cc1ccc(N=Nc2ccc(C)cc2NC(=O)Nc2ccccc2F)cc1	10%	/	-1.3	5%	-17	10
COc1ccc(C(=O)Nc2ccc3oc(-c4cccc(Cl)c4)cc(=O)c3c2O)cc1	-26%	2	-0.9	19%	-9	8
C/C(=C\c1ccccc1)C(=O)Nc1nc2ccc([N+](=O)[O-])cc2s1	6%	-10	-5.8	1%	3	-9
COc1ccc(NC(=O)COC(=O)C2CCN(S(=O)(=O)c3cccs3)CC2)cc1	4%	/	-4.2	0%	-6	-9
Cc1nc(Cl)sc1C(=O)Nc1ccccc1Cl	-10%	/	1.8	-34%[inhibitor]	-3	53*
CCc1ccccc1NC(=O)CN(c1cccc(OC)c1)S(C)(=O)=O	6%	-21	-1.9	-62%[inhibitor]	-1	11
O=[N+]([O-])c1cccc(Cn2cnc3c(=S)nc[nH]c32)c1	12%	6	-4.1	?	-1	-7
CN(c1cnn(-c2ccccc2)c(=O)c1Cl)n1cccc1	0%	6	0.0	-9%[15.4 µM]	0	4
Cc1ccc(N2CSC3=C(C#N)C(c4cccs4)CC(=O)N3C2)cc1 (stereo not drawn)	-8%	-5	5.1	?	-8	-11
COc1ccc(CN(C)C(=O)Cn2cnc(C(=O)Nc3ccc(C)c(C)c3)n2)cc1OC	-2%	-3	-0.6	/	-3	/
COc1cc(SC)ccc1C(=O)NCCOc1ccc(F)cc1	-3%	5	1.3	6%	-3	-22

5 entries drawn at random from those above:
SMILES	gsp antagonist	CtBP-E1A inh	D2 agonist	gsp ag	Six1-Eya2 inh	D2 PAM
COc1ccc(CN(C)C(=O)Cn2cnc(C(=O)Nc3ccc(C)c(C)c3)n2)cc1OC	-2%	-3	-0.6	/	-3	/
Nc1ccc(Oc2ccc3nc(-c4ccccc4)c(-c4ccccc4)nc3c2)cc1	-11%	5	-0.8	8%	6	-31
O=C(CN1C(=O)NC2(CCc3ccccc32)C1=O)NCc1ccccc1Cl (stereo not drawn)	16%	-19	-4.1	10%	0	-5
COc1ccccc1/C=C/C=N/NC(=O)c1ccc(=O)n(C)c1	0%	-2	0.9	5%	-8	-2
Cc1ccc(S(=O)(=O)N2CCCCC2)cc1C(=O)N1CCN(CCO)CC1	6%	3	-2.1	12%	4	2

More records
SMILES	gsp antagonist	CtBP-E1A inh	D2 agonist	gsp ag	Six1-Eya2 inh	D2 PAM
CC(C)(C)c1ccc(CN2N=C(/C=C/c3ccccc3)CCC2=O)cc1	-4%	8	6.6	4%	2	9
COCCCNC(=O)Cn1nnc(-c2ccc(NC(=O)c3ccccc3OC)cc2)n1	3%	2	3.0	12%	3	2
COc1ccccc1-c1sc2ccccc2c1C#CC1(O)CCCCC1	-13%	6	0.2	/	-3	-5
C=C(C)Cn1c2ccc(NC(=O)CCOCC)cc2c(=O)n1C	/	4	2.1	/	3	4
CCOC(=O)C1CCN(C(=O)c2cccc(Cl)c2)CC1	-3%	8	2.4	-1%	4	3
OC(c1cc(Cl)cc(Cl)c1)c1ncc(-c2ccccc2C(F)(F)F)[nH]1 (stereo not drawn)	/	12	4.0	/	10	-3
CCOc1cccc(OCCCOc2cccc3cccnc23)c1	2%	2	2.7	0%	-1	-1
CSCCC(NS(=O)(=O)c1ccc2c(c1)oc(=O)n2C)C(=O)NCc1ccccc1 (stereo not drawn)	12%	11	4.7	16%[15.4 µM]	3	0
COc1cc(/C=N/NC(=O)Cn2cnc3c2c(=O)n(C)c(=O)n3C)cc(OC)c1OC	9%	1	-1.1	32%[15.4 µM]	4	-23
COC(=O)c1cc(OC)c(OC)cc1NC(=S)N1CCN(Cc2ccccc2)CC1	4%	7	-1.0	-3%	1	-19
COc1ccc(CC(N)c2csc(NC(=O)NCCc3ccc(OC)c(OC)c3)n2)cc1 (stereo not drawn)	/	?	1.1	/	?	-2
Cn1c(=O)c(C(=O)COC(=O)c2cc(C3CC3)nc3ccccc23)c(N)n(Cc2ccccc2)c1=O	-17%	/	-1.7	-10%	-10	-10
O=C(Nc1cc(-c2nc3ncccc3o2)ccc1Cl)c1ccc2c(c1)OCO2	5%	/	-1.6	?	6	14
CC(NC(=O)c1ccc(NC(=O)c2ccco2)cc1)c1ccccc1 (stereo not drawn)	-4%	2	1.3	-10%	8	-12
COc1cccc(C2CC(c3c(Cl)cccc3Cl)n3nc(N)nc3N2)c1 (stereo not drawn)	-7%	5	-2.1	10%	0	0
CCOC(=O)C1CCCN(CC(O)COc2ccc(OC)cc2C(C)(C)C)C1 (stereo not drawn)	9%	-8	-0.8	?	-5	-30
CC1(C)CC(=O)C=C(c2ccc(F)cc2OCc2ccccc2)C1	-21%	19	1.6	/	21	0
CCN(CC)CCCNC(=S)N1CCC(c2nc3ccccc3[nH]2)CC1	8%	1	2.0	0%	-3	-3
CCCn1c(SCC(=O)N2N=C3/C(=C/c4ccc(OC)cc4)CCCC3C2c2ccc(OC)cc2)n[nH]c1=O (stereo not drawn)	-18%	-18	-0.9	18%	-21	-18
COc1ccc(CCC(=O)OCC(=O)N(CC(C)C)c2c(N)n(Cc3ccccc3)c(=O)[nH]c2=O)cc1	6%	3	-5.0	4%[15.4 µM]	7	-7
C=CCC1(CC=C)CCCN1C(=O)CC1C(=O)NCCN1Cc1ccc(OC)c(OC)c1 (stereo not drawn)	8%	/	-1.1	-23%	5	-6
CNS(=O)(=O)c1cc(NC(=O)c2cncn2-c2ccccc2)ccc1C	4%	-2	-2.3	3%	-3	-1
O=C(NCc1nc2ccccc2[nH]1)C1=C[C@@H](c2ccc(C(F)(F)F)cc2)C[C@@H](OCc2ccc(CO)cc2)O1	-12%	/	0.0	17%	4	-12
COC(=O)C1N[C@@H]([C@@H](NC(=O)COc2ccccc2)C(=O)NCc2ccccc2)SC1(C)C (stereo partly drawn)	-6%	2	1.8	/	1	-2
COc1ccc(CCNC(=O)c2ccccc2N(C)S(=O)(=O)c2ccccc2)cc1	-3%	1	0.2	14%	5	-5
Cn1nc(C(=O)Nc2ccc(S(=O)(=O)N3CCCCC3)cc2)c2ccccc2c1=O	?	0	0.8	0%[15.4 µM]	-2	6
COc1ccc(OC)c(-c2csc(N(CC3CCCO3)C(=O)C3CCCCC3)n2)c1 (stereo not drawn)	-15%	/	-4.4	-19%	-11	-21
CCOC(=O)C(CC(=O)O)N1CCCCC1 (stereo not drawn)	8%	8	-4.2	-5%	3	18
Cc1ccccc1NC(=S)N(Cc1ccccc1)Cc1cccs1	4%	9	0.2	-2%	3	-11
CCCCN(C=O)c1c(CC)nc2c(OCC(=O)N3CCOCC3)cccn12	/	24	-1.3	/	25	4
Cc1ccc(NC(=O)c2cccnc2)cc1S(=O)(=O)N(C)C	/	0	5.7	17%[15.4 µM]	-1	-7
O=C(NNC(=S)Nc1ccc(Br)cc1Cl)c1ccncc1	-29%	-3	-2.9	8%[15.4 µM]	-22	-10
CCOC(=O)CCNC(=O)N1CCCC(C(=O)c2ccc3c(c2)OCO3)C1 (stereo not drawn)	9%	1	-2.0	?	0	-2
CCCCNC(=O)NNC(=O)COc1cccc(C)c1C	6%	7	1.5	3%[15.4 µM]	2	-8
C/C(=C(\C#N)C(=O)NCc1ccccc1)N(C)C	0%	0	-0.6	17%	4	-1
CC(=O)C1(O)CCC2C3CCC4CC(O)CCC4(C)C3C(=O)CC21C (stereo not drawn)	2%	-12	0.6	-12%	17	-20
COC(=O)C1=C(C)N(C)C(=O)NC1c1ccc(C)cc1 (stereo not drawn)	2%	?	-2.3	-29%	4	-16
Cc1cccn2c(=O)c(/C=C(\C#N)C(=O)NCc3ccco3)c(N3CCOCC3)nc12	-15%	3	-4.8	?	-19	-5
COC(=O)COc1ccc(S(=O)(=O)NCc2ccc3c(c2)OCO3)cc1	-19%	10	-1.3	2%	0	-3
O=C(NC1(C(F)(F)F)NC(=O)N(Cc2cccnc2)C1=O)c1ccccc1 (stereo not drawn)	0%	0	-4.6	24%	2	-16
CC(C)c1ccc(NC(=O)C(c2ccccc2)N2CC(=O)Nc3ccccc32)cc1 (stereo not drawn)	-1%	0	-5.9	19%	-5	-9
COc1ccc(N2CCN(C(=O)CSc3nnc(-c4cccnc4)n3-c3ccccc3)CC2)cc1	?	-2	0.0	-21%	-4	6

Screens as filed in PubChem.
